StopGo RLuc: lowers the Renilla signal of an FMDV 2A StopGo reporter | AID 1745857 | HEK cells with a luciferase reporter of 2A StopGo recoding | 0.32% of 120,000 active | Potency, µM (highest dose often 57.5 µM), without a hit: at the top dose signal change, negative = less light; active means well fitted falling curve with a large enough effect; inconclusive means small, poorly fitted or top-dose-only effect; inactive means no such curve, though single readings can be large or run the other way; note: nearly all actives have a fitted effect of over 55% in size; overnight with compound
2A firefly: lowers the firefly signal of an FMDV 2A StopGo reporter; Potency, µM (highest dose often 57.5 µM), inactives show at the top dose signal change, negative = less light; HEK cells with a luciferase reporter of 2A StopGo recoding; 0.23% of 120,000 active; active = well fitted falling curve with a large enough effect; inconclusive = small, poorly fitted or top-dose-only effect; inactive = no such curve, though single readings can be large or run the other way; note: nearly all actives have a fitted effect of over 60% in size; overnight with compound
* hit, by the source's call; ? = inconclusive; & = joins results of further samples; [ ] = dose if it differs, or a comment. % is set by controls: 0 for no effect and ±100 for the full control effect; potency is the fitted concentration of half-maximal effect.

Molecule | StopGo RLuc | 2A firefly
CCOCCCNc1ncnc2c1cnn2-c1ccc(C)c(C)c1 | -6% | 0%
CC(C)C(=O)NCCNC(=O)C1(c2ccccc2)CCC1 | -1% | 1%
Cc1ccc(OCCNC(=O)c2cc(C3CC3)nc3ccccc23)cc1 | 19% | 13%
CCCc1nn(C)c2c(=O)[nH]c(-c3cc(S(=O)(=O)Nc4cccc(C)c4)ccc3OCC)nc12 | 29% | ?
COc1ccccc1Oc1c(C)oc2cc(OCC(=O)Nc3ccccc3F)ccc2c1=O | 13% | 20%
CCC1(CC)Cc2ccccc2C(NC(=O)NC2CCCC2)=C1C#N | 85%[activator] | -4%
CC1c2ccsc2CCN1CC(O)COc1ccc(-c2ccccc2)cc1 (stereo not given) | -8% | 0%
COc1ccc(-c2nonc2NC(=O)Cc2cccc3ccccc23)cc1 | 10% | 6%
Cc1ccc(NC(=O)CN2C=NS(=O)(=O)c3ccccc32)cc1 | 0% | -1%
CCOC(=O)C1CCN(CCC(=O)Nc2ccccc2OC)CC1 | -16% | -7%
C[N+](C)(C)CC(=O)N1CCN(c2ccc3ccccc3n2)CC1 | 24% | 0%
Cc1ccc(Cl)cc1N1CCN(Cc2nc3c(c(=O)n(C)c(=O)n3C)n2CCCO)CC1 | ? | ?
CCC1CN(C(=O)N2CCC(C(=O)NCCc3ccccc3C)CC2)c2ccccc2O1 (stereo not given) | 8% | -27%
COc1ccc2nc(SCc3ncc(C)c(OC)c3C)[nH]c2c1 | 18% | 5%[11.5 µM]
COc1cc(OC)c(CC2C(=O)Nc3cc(Cl)ccc32)c(OC)c1 (stereo not given) | ? | ?
O=C(O)CCc1c(O)ccc2ccccc12 | -14% | -6%
O=C(/C=C/c1ccccc1O)c1ccc(Sc2ccccc2)cc1 | 40%[activator] | 182%[activator]
Cc1ccc(C)c(Cn2cc(CCC(=O)NC3CCCCC3)c3ccccc32)c1 | -9% | -12%
Cc1cc(=O)cc(C)n1C | 13% | 5%
Cc1ccc(S(=O)(=O)Nc2ccc3c(c2)c(C(=O)OC(C)C)c(C)n3S(=O)(=O)c2ccc(C)cc2)cc1 | 19% | -14%
Cc1cc(OC(C)C(=O)NCc2ccccn2)c2c(C)cc(=O)oc2c1 (stereo not given) | -5% | 19%
CCCCCn1c(=O)[nH]c2cc(C(=O)Nc3cc(OC)cc(OC)c3)ccc2c1=O | -11% | -16%
COc1ccccc1Nc1nn2c(=O)c3ccc(C(=O)NCc4ccc(F)cc4)cc3nc2s1 | -1% | 14%
Cc1cc(C(=O)COC(=O)Cc2n[nH]c(=O)c3ccccc23)c(C)n1CC1CCCO1 (stereo not given) | ? | -4%
NS(=O)(=O)c1ccc(N/N=C/c2c(F)c(F)c(F)c(F)c2F)c([N+](=O)[O-])c1 | -8% | 6%
Cc1ccc(NS(=O)(=O)c2cccc(C(=O)Nc3ccc4oc(C)nc4c3)c2)cc1 | 1% | ?
Cc1ccc(C(=O)c2sc(Nc3cc(Cl)ccc3C)nc2N)cc1 | -21% | -9%
Cc1ccc(Sc2c(C)nn(C(=O)COc3ccccc3Br)c2C)cc1 | -16% | 66%[activator]
CC1=C(C(=O)Nc2cccc(C)c2C)C(c2ccc(C)cc2)NC(=O)N1 (stereo not given) | -7% | -1%
CCC(CC)C(=O)Nc1ccc2nc(SCC(=O)N3CCOCC3)sc2c1 | 54%[activator] | -21%
CN(CC(=O)Nc1ccccc1OC(F)(F)F)S(=O)(=O)c1ccc(F)cc1 | -2% | 4%
CCCCN(C(=O)c1cc(Cl)nc2ccccc12)c1c(N)n(Cc2ccccc2)c(=O)[nH]c1=O | 26% | -6%
CC(=O)Nc1c(I)c(NC(C)=O)c(I)c(C(=O)O)c1I | -6% | -12%[11.5 µM]
CCC(=O)c1cc2c(cc1NC(=O)c1ccco1)OCCO2 | 1% | 4%
COC(=O)C1=C(C)OC(N)=C(C#N)C1c1ccc(-c2ccccc2)cc1 (stereo not given) | -2% | 0%
N#Cc1ccccc1S(=O)(=O)N1CCN(C(=O)c2ccc(Cn3nnc4ccccc43)cc2)CC1 | ? | ?
CCOc1ccc(C(=O)c2cn(CC(=O)Nc3ccc(OC)cc3)c3cc4c(cc3c2=O)OCCO4)cc1 | -5% | 16%
CCCCCCOc1ccc(/C=C/c2nc3ccccc3s2)cc1 | 16% | 57%[activator]
COc1ccc(OC)c(C(O)c2nc3ccccc3n2C(C)C)c1 (stereo not given) | 4% | -4%
Cc1ccc(S(=O)(=O)NCC(c2ccc(N(C)C)cc2)N2CCc3ccccc32)cc1 (stereo not given) | -7% | -9%
CC(C)c1ccc(S(=O)(=O)N2CCN(Cc3cccc(F)c3)CC2)cc1 | 6% | 2%
COc1ccc(NC(=O)CSc2nc3ccccc3nc2N2CCOCC2)c(OC)c1 | -10% | -9%
Cc1cc2nn(-c3ccc(F)cc3)nc2cc1NC(=O)c1cccc2ccccc12 | -3% | 41%[activator]
COc1ccc(CNC(=O)Cc2csc3nc(-c4ccc(F)cc4)cn23)cc1 | -6% | 1%
O=C(CCc1c[nH]c2ccccc12)Nc1ccc(F)cc1F | 14% | 170%[activator]
Nc1nc2ncc(CNc3ccc(C(=O)N[C@@H](CCC(=O)O)C(=O)O)cc3)nc2c(=O)[nH]1 | -17% | -20%
CCN(CC)S(=O)(=O)c1cc(-c2nn(C)c(=O)c3ccccc23)ccc1C | 0% | 25%
Cc1cc(Cl)ccc1OCC(=O)N(Cc1sccc1C)C1CCS(=O)(=O)C1 (stereo not given) | -10% | 11%
CCN(Cc1nc(-c2ccc(OC)cc2)oc1C)S(=O)(=O)c1ccc(Cl)cc1 | -5% | -10%
CCC(C)Sc1nc2c(c(=O)[nH]c(=O)n2C)n1CCc1ccccc1 (stereo not given) | 2% | -2%
Cc1ccc(-n2nnnc2SCC(=O)N(C)c2ccccc2C(=O)NCc2ccco2)cc1C | -1% | -12%
COc1ccc(C)cc1B(O)O | -5% | 5%
CCCCc1ccc(NC(=S)NCCCO)cc1 | 37%[activator] | 146%[activator]
Cc1ccc2[nH]cc(C(c3ccccc3)c3ccc(C)s3)c2c1 (stereo not given) | 4%&-12% | -3%&-28%
N#Cc1cnn2c(C(F)F)cc(-c3ccccc3)nc12 | -13% | -8%
CCOC(=O)N1CCN(C(=O)c2ccc(N3C(=O)CCS3(=O)=O)cc2)CC1 | -2% | 2%
COc1c(CNCc2nnc3n2CCCCC3)c(C(C)C)nn1C | -1% | -3%
COCCn1c(N2CCN(Cc3ccc(Cl)cc3)CC2)nc2c1c(=O)[nH]c(=O)n2C | -4% | 14%
CCc1ccc(C2=C(C)C(N3CCC(C(=O)Nc4ccc(OC)c(OC)c4)CC3)=NS2(=O)=O)cc1 | -12% | -14%
CCOC(=O)c1ccc(NC(=O)c2cc(N3CCCCS3(=O)=O)ccc2Cl)cc1 | 8% | ?

Pulled one by one from the entries so far (3):
Molecule | StopGo RLuc | 2A firefly
Cc1ccc(S(=O)(=O)NCC(c2ccc(N(C)C)cc2)N2CCc3ccccc32)cc1 (stereo not given) | -7% | -9%
COC(=O)C1=C(C)OC(N)=C(C#N)C1c1ccc(-c2ccccc2)cc1 (stereo not given) | -2% | 0%
O=C(CCc1c[nH]c2ccccc12)Nc1ccc(F)cc1F | 14% | 170%[activator]

Next section:
Molecule | StopGo RLuc | 2A firefly
O=C(O)c1ccccn1 | 1% | -7%
Cc1ccc(OCCn2cc(C(=O)C3CCCCC3)c3ccccc32)cc1 | 22% | 0%
Cc1ccc(NS(=O)(=O)c2cn(C)c(C)n2)c(Br)c1 | 7% | 10%
O=C(Cc1ccc(F)cc1)NCCc1csc2nc(-c3ccccc3F)nn12 | 14% | -16%
COC(=O)c1c(-c2ccc(Cl)cc2)noc1N1CCN(c2cccc(OC)c2)CC1 | -5% | -13%
CCCCNC(=O)c1cc2n(n1)CCCN(Cc1ccc(C)cc1)C2=O | 34%[activator] | 3%
COc1ccc(-c2cc(C(=O)NCCC(C)C)c3ccccc3n2)cc1 | 20% | 42%[activator]
CS(=O)(=O)/C(C#N)=C\c1ccc(-c2ccccc2)cc1 | -3% | 20%
COc1ccc(NC(=O)CSc2nc(N3CCOCC3)c3c(c2C#N)CC(C)(C)OC3)cc1 | -10% | -2%
Cc1cccc(Oc2ccc(S(=O)(=O)N3CCCCC3)cc2NCC(=O)Nc2cc(C)on2)c1 | 41%[activator] | -1%
Cc1oc(-c2ccc(C(=O)NC(C)c3ccccc3)cc2)nc1CS(=O)(=O)c1ccccc1 (stereo not given) | -1% | -6%
Cc1cccc(NC(=O)C2CCCN2S(=O)(=O)c2ccc3c(c2)n(C)c(=O)c(=O)n3C)c1 (stereo not given) | 14% | 19%
CCOC(=O)c1[nH]c(C)c(CCC(=O)Nc2cccc(C(F)(F)F)c2)c1C | -7% | -13%
COc1cc(CNC(=O)c2nc(-c3ccccc3)oc2C)cc(OC)c1OC | ? | ?
c1cc2c(cc1-c1csc(NC3CC3)n1)OCCCO2 | 33%[activator] | 212%[activator]
CN(CCOc1ccccc1F)Cc1nc(N)nc(N(C)C)n1 | 12% | 31%[activator]
N#Cc1nc(-c2cccc(Cl)c2)oc1NCCCn1ccnc1 | 15% | 0%
Cc1[nH]c2ccccc2c1C(=O)C(C)OC(=O)c1ccc(F)cc1F (stereo not given) | 4% | 3%
Cc1nc2cc(F)ccc2cc1C(=O)N(C)CC1COc2ccccc2O1 (stereo not given) | -2% | 1%
CSc1nc2c(c(=O)n(C)c(=O)n2C)n1Cc1ccccc1F | 1% | 13%
O=C(COc1ccccc1Cl)Nc1ccc(OCc2cc(=O)n3ccsc3n2)cc1 | -6% | -7%
Cc1ccc(NC(=O)C(=O)NCC(c2cccnc2)N2CCc3ccccc32)cc1Cl (stereo not given) | -19% | -16%
CCn1cc(C(=O)NC2CCN(S(C)(=O)=O)CC2)c2ccccc21 | -2% | 6%
CN(Cc1cccc(Cl)c1Cl)C(=O)c1ccc(Cl)c(S(=O)(=O)NC2CC2)c1 | 124%[activator] | -14%
COC(=O)c1cccc(OC[C@@H](O)CN2CCC(C(O)(c3ccccc3)c3ccccc3)CC2)c1 | 0% | -11%
COc1cc(Br)c(/C=C(\C#N)c2nc3ccccc3[nH]2)cc1OC | 29%&0% | 184%&44%[activator]
N#Cc1ccc(NC(=O)c2nn(-c3ccccc3)c(=O)c3ccccc23)cc1 | -2% | -8%
CNC(=O)C1CCN(C(=O)N2CC(C)Oc3ccc(C)cc32)CC1 (stereo not given) | -13% | -13%
COc1cccc(CNc2nc3ccccc3nc2C(=O)OCC(C)C)c1 | 19% | 41%[activator]
CCOc1ccc(CCNC(=O)CN(c2ccc(C)cc2)S(=O)(=O)N(C)C)cc1OCC | 6% | -7%
CC(Sc1c(Cl)cccc1Cl)C(=O)c1ccc2c(c1)CCC2 (stereo not given) | 107%[activator] | 5%
Cc1ccc(C)c(NC(=O)CSc2nc3ccccc3nc2N2CCOCC2)c1 | -3% | -12%
Cc1ccc(C(=O)OC(C)C(=O)NC2CCCC2)c(O)c1 (stereo not given) | -24% | -13%
COc1cc(-c2nc3cnccn3c2Nc2ccc(C(C)C)cc2)ccc1O | -2% | -14%
Fc1ccc(NCc2nc3ccccc3n2CCOc2ccccc2Cl)cc1 | 99%[activator] | 119%[activator]
O=C1CCC2(C(=O)NCc3ccc(F)cc3)SCCN12 (stereo not given) | -8% | -10%
CC(=O)Nc1ccc(C)cc1-c1nc2ccccc2n(CC(=O)Nc2cc(Cl)ccc2C)c1=O | 43%[activator] | -22%
S=C(NCc1ccccc1Cl)Nc1cc(Cl)cc(Cl)c1 | -16% | ?
C/C=C/C=C/C(=O)NCc1cccc(OC)c1 | -5% | 11%
CC(=O)c1ccc(OCc2coc(-c3cccc(F)c3)n2)cc1 | 7% | 202%[activator]
COc1ccc(CN(C)CC(O)COc2ccccc2C)c(OC)c1OC (stereo not given) | -12% | 15%
CCn1c(SCC(=O)NCc2ccco2)nnc1-c1ccco1 | 3% | 0%
Cc1cccc(NC(=S)NN=C2CCCC2)c1 | 14% | 0%
CCOc1ccc(NC(=O)Nc2nnc(N(CC)c3ccccc3)s2)cc1 | -4% | -2%
Cc1ccc(CCNC(=O)c2ccc(CS(=O)(=O)Cc3ccc(Cl)cc3)o2)cc1 | -2% | 1%
CCCn1cc(S(=O)(=O)c2ccc(OCC)cc2)c(=O)c2cc(C)ccc21 | 30% | -12%
CC(C)Cn1nc(C(=O)N2CCC(C(=O)Nc3ccc4c(c3)OCO4)CC2)c2ccccc2c1=O | 72%[activator] | 12%
Cc1ccc(Cl)cc1N1CCN(c2ncnc3onc(C)c23)CC1 | -19% | -9%
CCC(=O)N1c2ccc(S(=O)(=O)N3CCCCCC3)cc2CC1C (stereo not given) | 118%[activator] | 63%[activator]
CN(C)c1cccc(C(=O)NNC(=O)c2ccc(Cl)cc2)c1 | 10% | 179%[activator]
C#CCN1CCCCC1C(=O)N1CCN(c2cccc(Cl)c2)CC1 (stereo not given) | -12% | 34%[activator]
O=S(=O)(c1ccc(-c2nc3ccccc3s2)cc1)N1CCCCCC1 | 19% | 123%[activator]
CCOC(=O)c1cnc2c(C)cc(C)cc2c1NCCN1CCOCC1 | 11% | -19%
CCCCc1cc(=O)oc2c(C)c(OCC(=O)O)ccc12 | 13% | 29%

Single records (already shown). Order of values: StopGo RLuc, 2A firefly
CC(=O)c1ccc(OCc2coc(-c3cccc(F)c3)n2)cc1 is listed with 7%, 202%[activator]
CC(C)Cn1nc(C(=O)N2CCC(C(=O)Nc3ccc4c(c3)OCO4)CC2)c2ccccc2c1=O is listed with 72%[activator], 12%
O=C1CCC2(C(=O)NCc3ccc(F)cc3)SCCN12 (stereo not given) is listed with -8%, -10%

High-throughput results deposited in PubChem BioAssay by National Center for Advancing Translational Sciences (NCATS).
